High-throughput results (PubChem)
H5N1 antiviral: antiviral screen in MDCK cells, H5N1 avian flu; inhibition, % at 50 µM; AID 740; 96,000 tested, 0.07% active; cytopathic effect, luminescence, 72 h; stronger effect = higher value; no value below 0 was filed and about half of the inactive calls have no number; reference of the scale not given here; in the data active = inhibition above about 25%
An asterisk follows results filed as active; i = inactive. A portion of the library; the hit share may differ from the screen's.

SMILES	H5N1 antiviral
COc1ccccc1Nc1nc(N)nc(CN2CCN(c3ccccc3)CC2)n1	i
COc1ccccc1CNC(=O)c1ccoc1C	3.4
N#Cc1nc(Cc2cccc3ccccc23)oc1N1CCN(c2ccccc2)CC1	2.0
CC1=C(C)CS(=O)N(S(=O)(=O)c2ccc(Cl)cc2)C1 (stereo unspecified)	1.3
c1coc(-c2nnc3n2C2(CCCC2)Cc2ccccc2-3)c1	2.1
O=C(NCCN1CCOCC1)C1CCN(Cc2ccccc2O)CC1	i
COc1cccc(Cn2c(-c3nonc3N)nc3ccccc32)c1	i
Cc1ccc(C)c(NC(=O)CSc2nnc(-c3ccccc3)n2N)c1	0.9
COc1ccc(N2CCN(c3ncccn3)CC2)cc1	i
COc1ccc(C(=O)COC(=O)[C@H](C)Nc2ccc(C(F)(F)F)cc2[N+](=O)[O-])cc1	i
C1CCC2=NCCCN2CC1	i
Cc1noc(C)c1C(=O)Nc1c(F)cc(F)cc1Br	i
CC12CC(c3ccccc3O1)N(C(=O)c1ccc(Br)o1)C(=O)N2c1ccccc1 (stereo unspecified)	i
CCS(=O)(=O)N1CCCC(C(=O)NC2CCC(C)CC2)C1 (stereo unspecified)	0.6
CCOC(=O)Nc1ccc2c(c1)N(C(=O)CCN1CCN3CCCC3C1)c1ccccc1CC2 (stereo unspecified)	i
C=CCc1ccccc1OCC(O)CN1CCN(c2ccccc2OC)CC1 (stereo unspecified)	i
COc1ccc(Cn2c(=O)sc3ccccc32)cc1OC	i
Cc1ccc(C)c(Cn2c(=O)n(CCC(=O)NCc3ccco3)c(=O)c3sccc32)c1	1.5
Cc1cccc(-c2nsc(SCC(=O)N3CCCC3)n2)c1	i
Cc1cc2ncn(-c3ncnc4scc(-c5ccccc5)c34)c2cc1C	i

3 compounds from above, ordered by SMILES length, low to high.
SMILES	H5N1 antiviral
COc1ccc(Cn2c(=O)sc3ccccc32)cc1OC	i
CC12CC(c3ccccc3O1)N(C(=O)c1ccc(Br)o1)C(=O)N2c1ccccc1 (stereo unspecified)	i
Cc1ccc(C)c(Cn2c(=O)n(CCC(=O)NCc3ccco3)c(=O)c3sccc32)c1	1.5

Carrying on:
SMILES	H5N1 antiviral
O=C(NCC1CCCO1)c1cc2n(n1)C(C(F)(F)F)CC(c1ccc(Br)cc1)N2 (stereo unspecified)	i
C=CCn1c(-c2cccn(Cc3ccccc3)c2=O)n[nH]c1=S	i
COc1ccc(OC)c(C2C(C(=O)O)c3ccccc3C(=O)N2C)c1 (stereo unspecified)	0.2
c1ccc2c(c1)nnn2Cc1nnc2sc(-c3ccncc3)nn12	2.0
CC1CCCCN1S(=O)(=O)c1ccc(NC(=O)CSc2nnnn2C)cc1 (stereo unspecified)	i
Cn1cnnc1SCC(=O)Nc1cccc(C(=O)O)c1	0.0
O=C(NCCN1CCNCC1)c1ccccn1	0.5
COC(=O)c1ccc(C)c(NC(=O)CN(c2ccc3c(c2)OCO3)S(C)(=O)=O)c1	0.5
O=C(C(Cc1ccccc1)n1cccc1)N1CCN(c2ncccn2)CC1 (stereo unspecified)	i
COc1ccc(CSc2nc(N3CCOCC3)c3c(c2C#N)CC(C)(C)OC3)cc1	5.6
CCCC(=O)NCCCc1nc2ccccc2n1CCC	i
Cc1ccc2oc(=O)c3cnn(CC(=O)N4CCCc5ccccc54)c3c2c1	2.4
S=c1[nH]nc(CSc2nc3ccccc3s2)o1	i
CCS(=O)(=O)NCC(c1cccnc1)N1CCN(c2ccccc2)CC1 (stereo unspecified)	0.4
N#CC(c1ccc(Cl)nn1)c1ccccc1Cl (stereo unspecified)	i
O=C(NCc1ccco1)C(c1cccs1)N(C(=O)Cc1cccs1)c1ccccc1 (stereo unspecified)	i
CC(=O)Nc1nc2ccccc2n1CCOc1ccccc1	0.9
Cc1cc(Cl)ccc1OCC(=O)NCc1ccncc1	0.1
CCN(CC)CCCNC(=O)C1c2ccccc2C(=O)N1Cc1ccc(C)cc1 (stereo unspecified)	0.9
O=C(Nc1ccc2c(c1)OCCO2)NC1CCCCC1	0.6
Cc1ccc(CSc2nc3sc(C)c(C)c3c(=O)n2Cc2ccco2)cc1	2.6
CC(=O)Nc1cccc(N2C(=O)CC(Cc3ccccc3)C2=O)c1 (stereo unspecified)	0.9
CCCCC(=O)NC(=S)Nc1ccccc1C(=O)Nc1ccccc1	i
CN1CC(=O)N(CCOc2ccccc2)C1=O	i
COc1ccc(S(=O)(=O)N2CC(O)CC2C(=O)OCC(=O)Nc2ccc(Cl)cn2)cc1 (stereo unspecified)	i
C#CCSc1nc(-c2cccs2)ccc1C#N	0.5
Cc1cc(C(=O)N2CCN(c3ccccc3)CC2)no1	i
COc1cc(C2C(C#N)=C(C)NC3=C2C(=O)CC(C)(C)C3)cc(OC)c1O (stereo unspecified)	0.4
Cc1ccc(Cn2cccc(NC(=O)NC3CCCCC3)c2=O)cc1	2.0
COc1ccc(C(=O)N(CCCO)C(C)C(=O)NC2CCCCC2)cc1OC (stereo unspecified)	0.1
CCC(C)(C)n1nnnc1C(c1ccc(C)cc1)N1CCCC1 (stereo unspecified)	0.3
Cc1ccccc1C(=O)NC(NCc1ccco1)C(Cl)(Cl)Cl (stereo unspecified)	i
O=[N+]([O-])c1ccc(N2CCNCC2)cc1NC1CC1	i
O=c1cc(CN2CCN(S(=O)(=O)c3ccc4c(c3)OCCO4)CC2)c2ccc(O)cc2o1	1.2
Cc1ccc2cc(CN(CCCN(C)C)C(=O)NCc3ccccc3)c(=O)[nH]c2c1C	i
c1ccc2c(c1)oc1c(NCCN3CCOCC3)ncnc12	i
N#Cc1c(/N=C/c2ccco2)oc(-c2ccccc2)c1-c1ccccc1	i
CC(C)Oc1cc(-n2c(=S)[nH]c3ccccc3c2=O)c(Cl)cc1Cl	i
O=C(O)C1C2C=CC(C2)C1C(=O)Nc1ccc(C(=O)N2CCCCC2)cc1 (stereo unspecified)	0.5
COc1ccccc1C(OC(=O)c1cccs1)C(=O)NCC1CCCO1 (stereo unspecified)	i
O=C(COC(=O)C1CCN(S(=O)(=O)c2cccc3cccnc23)CC1)c1ccc(F)cc1	0.3
Cc1ccc2c(c1)CCCN2C(=O)c1c(C)noc1C	0.7
COc1ccc(NC(=O)C(C)N(c2ccc(C)cc2)S(C)(=O)=O)cc1 (stereo unspecified)	i
Cc1nc2sc(C(c3ccc(Cl)cc3)N3CC(C)OC(C)C3)c(O)n2n1 (stereo unspecified)	i
COc1ccc(/C=C(/C#N)S(=O)(=O)c2ccc(C)cc2)cc1	i
COc1cc(CN(C)CCc2ccccc2)ccc1OCc1ccccc1	i
C=C(C)COc1ccc(-c2[nH]ncc2Oc2ccccc2OC)c(O)c1	1.6
CCCCn1c(=O)n(Cc2cccc(F)c2)c(=O)c2c1ncn2Cc1ccco1	i
O=C(Nc1cnn(Cc2ccc(Cl)c(Cl)c2)c1)c1nc2ncccn2n1	0.4
CCCCn1c(SCC(=O)N2CCCCC2)nc2cc(S(N)(=O)=O)ccc21	0.7

(list continues)
SMILES	H5N1 antiviral
Cc1cc(C)c(NC(=O)C2CCCN2C)c(C)c1 (stereo unspecified)	i
Cc1ccc(C)c(/C=N/NC(=S)NCCc2ccccc2)c1	0.1
CC1=C(C(=O)OC2CCCCC2)C(c2ccco2)C2=C(CC(C)(C)CC2=O)N1 (stereo unspecified)	i
Cc1cc(C)cc(C(=O)N2CCC(C(N)=O)CC2)c1	2.3
COc1cccc(C(=O)c2cc3ccc(O)cc3oc2=O)c1	0.7
COc1ccc(NC(=O)/C(Cl)=C(/Cl)S(=O)Cc2ccccc2)cn1 (stereo unspecified)	i
N#Cc1cnn(Cc2ccccc2)c1/N=C/N1CCOCC1	1.5
CCN(CC)c1ccc(/C=N/Nc2nc3ccccc3[nH]2)c(O)c1	i
Cc1ccc([N+](=O)[O-])cc1NC(=O)CN(C(=O)c1ccc(Cl)cc1)C1CCCCC1	i
COc1ccc(CNc2nc(NCc3ccc(OC)cc3)n(C(C)=O)n2)cc1	i

A second format for four compounds above:
SMILES: CCN(CC)c1ccc(/C=N/Nc2nc3ccccc3[nH]2)c(O)c1
  H5N1 antiviral = i

SMILES: COc1ccc(CNc2nc(NCc3ccc(OC)cc3)n(C(C)=O)n2)cc1
  H5N1 antiviral = i

SMILES: COc1cccc(C(=O)c2cc3ccc(O)cc3oc2=O)c1
  H5N1 antiviral = 0.7

SMILES: Cc1cc(C)c(NC(=O)C2CCCN2C)c(C)c1 (stereo unspecified)
  H5N1 antiviral = i

(list continues)
SMILES	H5N1 antiviral
CCc1nc2ccccc2c(C(=O)OCC(=O)NCc2ccco2)c1C	1.6
O=C1C2ON(c3ccccc3)C(c3ccncc3)C2C(=O)N1c1ccccc1 (stereo unspecified)	0.1
CC(=O)Nc1ccc(-c2ccccc2)s1	i
CC(=O)Nc1cc(C(N)=O)c(Cl)cc1Cl	i
COCCn1c(SCC(=O)c2ccc3c(c2)OCCO3)nnc1C(C)C	i
COc1ccc2c(c1)c1nc3ccccc3nc1n2CCn1c(=O)oc2ccccc21	1.0
Clc1ccc(/C=N/Nc2ncnc3ccccc23)cc1Cl	i
COc1cccc(-n2cc(C(=O)O)c3ccccc3c2=O)c1	0.2
CC(=O)Nc1ccc(S(=O)(=O)Nc2c(C)nn(-c3ccccc3)c2C)cc1	1.9
Cc1c(C(=O)Nn2cnnc2)oc2ccccc12	i
Cc1ccc(Cl)cc1NC(=O)C1CCCN(S(=O)(=O)c2c(C)noc2C)C1 (stereo unspecified)	i
CCCOc1c(OC)cc(Cl)cc1C1NC(=O)NC(C)=C1C(=O)NCc1ccccc1 (stereo unspecified)	i
COc1ccc2[nH]cc(/C=C(/C#N)S(=O)(=O)c3ccccc3)c2c1	i
COc1ccc2c(=O)c(C(=O)NCCc3ccc(OC)c(OC)c3)c[nH]c2c1	i
CC1Cc2ccccc2N1C(=O)Cn1c(=O)cc(O)c2ccccc21 (stereo unspecified)	i
C=CCNC(=O)CSc1nc2sc(C)c(C)c2c(=O)[nH]1	0.2
COc1ccccc1OCCOCCn1cnc2ccccc2c1=O	1.1
COC(=O)c1nn(-c2ccccc2)c(Cl)c1/C=N/OCc1ccc(Cl)cc1Cl	i
COc1ccc2oc(=O)c(NC(=O)C3CCCCC3)cc2c1	i
COc1ccc(C2C(C(=O)O)CCC(=O)N2c2ccc(OC)cc2)cc1 (stereo unspecified)	0.2

In the list so far, these contain a CF3 group.
SMILES	H5N1 antiviral
COc1ccc(C(=O)COC(=O)[C@H](C)Nc2ccc(C(F)(F)F)cc2[N+](=O)[O-])cc1	i
O=C(NCC1CCCO1)c1cc2n(n1)C(C(F)(F)F)CC(c1ccc(Br)cc1)N2 (stereo unspecified)	i

Further results.
SMILES	H5N1 antiviral
COC(=O)c1ccc(C2C(C#N)=C(C)NC3=C2C(=O)CC(C)(C)C3)cc1 (stereo unspecified)	9.1
CCc1nnc(NC(=O)c2ccc(S(=O)(=O)N3CCCCCC3)cc2)s1	0.9
CC(C)Cc1ccc(/C(=N/O)C(=O)O)s1	i
COCCNC(=O)C(OC(=O)c1ccco1)c1ccccc1OC (stereo unspecified)	1.1
COc1ccc(NC(=O)CCN2C(=O)c3ccccc3S2(=O)=O)cc1	i
COc1cc(-c2nnc(SCc3cc(=O)oc4cc(O)c(O)cc34)o2)cc(OC)c1OC	i
O=C(NCCNS(=O)(=O)c1ccccc1)c1cc(OCC(F)(F)F)ccc1OCC(F)(F)F	0.5
CCOc1ccccc1-c1nc(C(N)=O)c2[nH]c(=O)n(-c3ccccc3)c2n1	1.9
CC(=O)Cc1nsc(Nc2ccccc2)n1	i
COC(=O)CSc1cc(C)nc(NC(C)=O)n1	i
CCn1ncc(/C=N\NC(=O)c2ccc3c(c2)c(C)c(C)n3Cc2ccccc2)c1C	0.5
O=C(Nc1ccc2c(c1)OCCO2)C1CCCN(S(=O)(=O)c2cnc[nH]2)C1 (stereo unspecified)	2.1
Cc1nnc(N2CCN(c3ccccc3)CC2)[nH]c1=O	i
CCN(CC)S(=O)(=O)c1ccc(-c2nnc(SCc3nnc(-c4ccc(C)cc4)o3)o2)cc1	0.4
Cc1nn(C)c(C(=O)NNC(=S)Nc2ccc(F)cc2)c1[N+](=O)[O-]	i
CCOC(=O)C1=C(C)NC(=O)NC1c1cccc(OC)c1OCc1ccccc1Cl (stereo unspecified)	i
O=S(=O)(c1ccc(C2CCCCC2)cc1)N1CCN(c2ncccn2)CC1	0.2
Cc1cccc(-c2nc(C#N)c(NC3CCCCC3)o2)c1	3.1
O=S(=O)(c1ccccc1)N1CCN(CC(O)COc2ccc3c(c2)CCC3)CC1 (stereo unspecified)	0.6
O=C(C1CC1)N1CCc2cc(Br)cc(S(=O)(=O)NCc3ccccn3)c21	3.8
O=C(CS(=O)(=O)c1c[nH]c2ccccc12)N1CCCc2ccccc21	4.0
Cc1cc(C=O)c(C)n1-c1ccc(N2CCCCC2)c([N+](=O)[O-])c1	i
COc1ccc(C)cc1-n1nnnc1SCc1csc(C)n1	0.3
Cc1ccc(C)c(OCCCCn2ccnc2)c1	i
C=CCn1c(SC(C)CC)nc(O)cc1=O (stereo unspecified)	0.1
OCCN1CCN(CC(O)COc2ccc(-c3ccccc3)cc2)CC1 (stereo unspecified)	i
O=C(O)CSc1ncnc2sc3c(c12)CCC3	i
CCCCNCCCOc1cc(Cl)ccc1Cl	i
COc1ccc(CCNC(=O)c2sc3cc(C)ccc3c2Cl)cc1	0.4
Cc1cc(-c2nc3c4c5c(sc4[nH]c(=O)n3n2)CCC5)c(C)o1	1.7
Cc1ccc([N+](=O)[O-])cc1NC(=S)NC(=O)CC(C)(C)C	i
O=c1[nH]c2ccccc2nc1NCCN1CCOCC1	i
Cc1cccc(CN(CC(=O)N/N=C/c2ccco2)S(=O)(=O)c2ccc(Cl)cc2)c1	i
